High-throughput results: PubChem BioAssay, National Center for Advancing Translational Sciences (NCATS)
VDR inh: inhibitors of human vitamin D receptor. VDR-SRC2-3 peptide fluorescence polarization, 2 h. Potency, µM, without a hit: max response, negative = inhibition, actives largely listed as inhibitors. hit rate 0.93% among 400,000. AID 504847; active means well fitted inhibition curve with a large enough effect; inconclusive means small, poorly fitted or top-dose-only effect, or another doubt; inactive means no such curve, though single readings can be large or run the other way; further: series mostly up to about 120 µM
Target sequence (P11473 whole entry, looked up): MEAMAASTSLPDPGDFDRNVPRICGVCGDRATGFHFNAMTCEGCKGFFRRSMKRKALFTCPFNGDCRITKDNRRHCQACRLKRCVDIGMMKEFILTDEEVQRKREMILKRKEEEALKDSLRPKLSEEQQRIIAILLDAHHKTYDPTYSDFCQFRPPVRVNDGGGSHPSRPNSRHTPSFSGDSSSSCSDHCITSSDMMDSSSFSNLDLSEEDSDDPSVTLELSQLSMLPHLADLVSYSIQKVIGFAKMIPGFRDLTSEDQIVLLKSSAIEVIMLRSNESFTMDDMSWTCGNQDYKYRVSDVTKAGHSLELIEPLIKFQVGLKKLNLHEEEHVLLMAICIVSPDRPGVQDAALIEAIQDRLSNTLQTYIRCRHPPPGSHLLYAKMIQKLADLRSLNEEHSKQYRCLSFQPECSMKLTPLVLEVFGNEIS
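Two reagent solutions held at 4 deg C in the dark were dispensed, compounds pinned at 23 nl, and the mixture incubated 2 h at room temperature. Read-out: fluorescence polarization of VDR–SRC2-3 peptide binding.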
An asterisk follows results filed as active; u = inconclusive; & = joins results of further samples. On the % scale 0 is the no-effect control and ±100 the full control effect; potency means the concentration at half of the fitted maximal effect.

SMILES	VDR inh
Cc1cccc(NC(NC(=O)c2ccccn2)C(Cl)(Cl)Cl)c1 (stereo not given)	-9%
Cc1ccc(N=C2C(=O)Nc3ccccc32)cc1C	-11%
CC[N+](C)(C)CCN(Cc1ccc(Cl)cc1)c1ccccn1	-8%
O=C1NC[C@H](c2ccccc2)OC(=O)[C@@H](Cc2ccc(F)cc2)CC/C=C/C[C@@H]1CC(=O)N(CCO)Cc1ccccc1	12%
CCS(=O)(=O)N1CCN=C1SCc1cccc(F)c1	4%
CCN(CC)c1ccc(/C=N/NC(=O)CNC(=O)c2cccs2)cc1	-9%
C=CC[C@@H](CC(=O)N(CCO)Cc1ccccc1)C(=O)NC[C@H](OC(=O)[C@@H](CC=C)Cc1ccc(F)cc1)c1ccccc1	18%
CCOc1ccc(NC(=O)Cn2c(=O)n(CC3CCCO3)c(=O)c3ccccc32)cc1 (stereo not given)	-12%&8%
Cc1ccc(S(=O)(=O)N2CCOCC2)cc1NC(=O)CNC1CCCC1	17%
CCOc1ccc(CNC(=O)Cn2ccc3cc(S(=O)(=O)N4CCCC4)ccc32)cc1	-14%
COc1cc2[nH]c3c(Cl)ncnc3c2cc1OC	-7%
O=C(CC1Sc2ccccc2NC1=O)NCc1cccc(Cl)c1 (stereo not given)	-5%
COC(=O)c1cc2oc3ccccc3c2n1Cc1cccc(C)c1	-13%
CN(C)c1ccc(N2C(=O)CC(Nc3ccc(N4CCOCC4)cc3)C2=O)cc1 (stereo not given)	-16%
COC(=O)COc1ccc(C(C2C(=O)CC(C)(C)CC2=O)C2C(=O)CC(C)(C)CC2=O)cc1	50µM*
Cc1cc(Nc2cccc(C(F)(F)F)c2)ncn1	-3%
O=C(NCCn1cc(SCc2ccc(Br)cc2)c2ccccc21)c1cccs1	-3%
C=C(C)CN1CCN(c2c(CCC#N)c(C)c(C#N)c3nc4ccccc4n23)CC1	16%
Cc1cccn2c(=O)c(/C=C3\SC(=S)NC3=O)c(NCCCN3CCOCC3)nc12	10%
CCOc1ccc(/C=C2\SC(=S)N(CCC(=O)O)C2=O)cc1	8%
Cc1[nH]n(-c2ccccc2)c(=O)c1/C=N/N1C(=O)c2ccc3c4c(ccc(c24)C1=O)CC3	-3%
COc1ccc(C2SCC(C(=O)O)N2C(C)=O)cc1OC (stereo not given)	-9%
Cn1cnnc1SCC(=O)Nc1ccccc1Sc1ccccc1	6%
CC(C)C(OC(=O)c1ccccc1)c1nccc2ccccc12 (stereo not given)	8%
CC(=O)Oc1ccc(C(=O)Nc2ccc3c(c2)C(=O)N(CCC(=O)O)C3=O)cc1	-10%
Cc1ccccc1OCCn1c(S(=O)(=O)O)nc2c(N)ncnc21	-17%
CCN(CC(=O)Nc1c(Cl)cccc1Cl)C(=O)C1CCN(c2ncnc3sc(C)c(C)c23)CC1	-8%
CN(c1ccccc1)S(=O)(=O)c1cccc(C(=O)Nc2nccs2)c1	-5%
Cc1nn(CC(=O)O)c(=O)c2ccccc12	-7%
CCc1ccc(/C(C)=N\Nc2ccc([N+](=O)[O-])cc2)cc1	-4%

Records listed above that bear a hit mark in VDR inh.
SMILES	VDR inh
COC(=O)COc1ccc(C(C2C(=O)CC(C)(C)CC2=O)C2C(=O)CC(C)(C)CC2=O)cc1	50µM*

(continued)
SMILES	VDR inh
COc1ccccc1CCNC(=O)Cn1ccc2cc(S(=O)(=O)N3CCCC3)ccc21	-13%
CN(C)c1ccc(C#Cc2ccc3cc(CCCO)oc(=O)c3c2)cc1	-13%
Clc1ccc(C2Nc3cccc4cccc(c34)N2)cc1	-8%
COc1ccc(OC)c(S(=O)(=O)NCC(=O)NC2CCCCCC2)c1	-19%
CCN(CC(=O)Nc1ccc2c(c1)OCCO2)C(=O)c1ccc(Cl)cc1Cl	-17%
COc1ccc(CN2CCC(C(=O)N3CCCC(C)C3)CC2)cc1OC (stereo not given)	8%
CCCN(CCC)S(=O)(=O)c1ccc(C(=O)N2CCOCC2)cc1	9%
Cc1cc(C(F)(F)F)nc(-n2cc(-c3cccc(N)c3)nn2)n1	2%
Cc1sc2nc(-c3ccccn3)[nH]c(=O)c2c1-c1ccccc1	u
Cc1cc(NC(=O)c2cc(-c3ccc4c(c3)OCO4)on2)n(-c2ccccc2)n1	-1%
O=C(NCCc1c[nH]c2ccccc12)c1cc([N+](=O)[O-])cc([N+](=O)[O-])c1	11%
Cc1ccc(NC(=O)C2CCN(S(=O)(=O)c3c(C)noc3C)CC2)cc1	-18%
CC(=O)N1c2ccccc2CC1C(=O)N1CCN(c2ccccc2F)CC1 (stereo not given)	8%
Nc1nc(C2CCCN2S(=O)(=O)c2ccc(Cl)cc2)cs1 (stereo not given)	-8%
COc1ccccc1N1CCN(C(=O)CSc2nnc(NC(=O)C3CCC3)s2)CC1	0%
CCC(=O)NC(=S)Nc1ccc(S(=O)(=O)N2CCN(C)CC2)cc1	4%
Cc1onc(-c2c(Cl)cccc2Cl)c1C(=O)NCCc1ccncc1	-9%
O=C(NCc1ccc(F)cc1)c1ccc(Nc2nc3ccccc3n3nnnc23)cc1	2%
CC(C)CCNC(=O)CN(CCN1CCOCC1)C(=O)Cn1nnc(-c2ccc(F)cc2)n1	16%
CCCCNC(=O)c1ccc2c(c1)NC(=O)C(CS(=O)(=O)Cc1cccc(C)c1)N2 (stereo not given)	11%
O=[N+]([O-])c1ccc(/C=N/Nc2ccccn2)cc1	-8%
COc1ccc(-c2cc(C#N)nc(N3CCN(C)CC3)n2)cc1	-14%
Cc1ccc(C2CC(=O)NC(SCC(=O)Nc3nccs3)=C2C#N)cc1 (stereo not given)	-1%
CCOC(=O)c1ccc(NC(=O)C2CCN(C(=O)c3ccc(OC)c(OC)c3)CC2)cc1	12%
NC(=O)CSc1nnc(Cn2c(=O)sc3ccccc32)n1-c1ccccc1	-22%
CC(C)c1ccc(/C=N/n2c(-c3ccccc3)n[nH]c2=S)cc1	7%
Cc1ccsc1-c1nc(C(N)=O)c2[nH]c(=O)n(-c3ccc(Cl)cc3)c2n1	-8%
O=C(Cn1cncn1)c1ccccc1Br	3%
O=[N+]([O-])c1cccc(-c2nnc3n2CCCCC3)c1	u
C=CCn1c(C)nnc1SCC(=O)Nc1nccs1	10%
Cc1ccc(CNc2nc(-c3ccco3)nn2S(=O)(=O)c2ccc3ccccc3c2)cc1	2%
Cc1cc(OC(=O)CNC(=O)OC(C)(C)C)c2c(C)cc(=O)oc2c1	4%
Cc1c(Cl)c([N+](=O)[O-])nn1CC(=O)Nc1c(C)n(C)n(-c2ccccc2)c1=O	6%
CC(C)=CCC/C(C)=C/CC/C(C)=C/CO	-27%&-9%&-11%
Cc1ccc2[nH]c(=O)c(C(c3nnnn3CC3CCCO3)N3CCc4ccccc4C3)cc2c1 (stereo not given)	1%
CC12CCC(=O)N1C(C(=O)NNC(=O)c1ccccc1F)CS2 (stereo not given)	-12%
CC(C)(C)c1ccc(/C=C/C(=O)NCCCn2ccnc2)cc1	-12%
O=C(CCCN1C(=O)/C(=C/c2cccs2)SC1=S)Nc1ccc(O)cc1	-6%
O=C(Nc1sc2c(c1C(=O)O)CCCCC2)c1ccccc1F	u
C[C@H](CO)N1C[C@H](C)[C@@H](CN(C)C(=O)Nc2ccc(C(F)(F)F)cc2)Oc2ccc(NS(=O)(=O)c3ccc(F)cc3)cc2C1=O	-3%
O=C(CSc1ccc(Br)cc1)NC1CCS(=O)(=O)C1 (stereo not given)	u
CCOc1cccc(NC(=O)CSc2ncc(-c3ccc(Cl)cc3)[nH]2)c1	-20%
Cc1ccc(C2C(=O)N(C3CCC(C)CC3)CC(=O)N2C2CCCC2)cc1 (stereo not given)	-3%&-12%
O=C(NCc1ccco1)c1cc(-c2ccccc2)on1	-13%
CCOC(=O)C1CCCN(CC(=O)Nc2c(C(=O)OC)[nH]c3ccc(Cl)cc23)C1 (stereo not given)	13%
CCOc1ccc(CNC(=O)c2ccco2)cc1	-16%
CNCC[C@@H](Oc1ccc(C(F)(F)F)cc1)c1ccccc1	-27%
COc1ccc(OC)c(/C=C/C(=O)OCC(=O)N2CCN(S(=O)(=O)c3ccc(C)cc3C)CC2)c1	1%
COc1ccc(C(=O)CSc2nnc(C3CC3)n2N)cc1	15%
O=C(OCC(=O)N1N=C(c2ccc(Cl)cc2)CC1c1ccco1)c1ccccc1O (stereo not given)	-7%
CCN1C(=O)[C@H]2[C@H]3CN=C(SC)N3[C@@](Cc3ccccc3)(C(=O)OC)[C@H]2C1=O	1%
CCNC(=O)NC(=O)C(C)OC(=O)c1oc2ccc(OC)cc2c1C (stereo not given)	-14%
O=S(=O)(c1ccc(N2CCCC2)nc1)N1CCCC1	-7%
CC(=O)N1[C@H](Cc2ccccc2)C=C[C@]1(C)C(=O)NCCc1c[nH]c2ccccc12	u
CC(C(=O)O)n1cc(Cl)cn1 (stereo not given)	13%
CCOc1ccc(CCNC(=O)C2=C(C)C(=O)OC23CCC(C)CC3)cc1OCC (stereo not given)	-2%&-20%
O=C(Nc1nncs1)C1CCCC1	-3%
CCOCCCNC(=O)Cn1nc(-c2ccccc2)ccc1=O	-17%
C[C@H](NC(=O)N1CCn2c1nc1ccccc12)C(=O)NCc1ccco1	-7%
Cc1cccc(NS(=O)(=O)c2ccc3c(c2)CCN3C(=O)CCC(=O)O)c1C	-5%

A run of entries from the list above, for reference:
SMILES	VDR inh
Cc1cc(OC(=O)CNC(=O)OC(C)(C)C)c2c(C)cc(=O)oc2c1	4%
Cc1c(Cl)c([N+](=O)[O-])nn1CC(=O)Nc1c(C)n(C)n(-c2ccccc2)c1=O	6%
CC(C)=CCC/C(C)=C/CC/C(C)=C/CO	-27%&-9%&-11%
Cc1ccc2[nH]c(=O)c(C(c3nnnn3CC3CCCO3)N3CCc4ccccc4C3)cc2c1 (stereo not given)	1%
CC12CCC(=O)N1C(C(=O)NNC(=O)c1ccccc1F)CS2 (stereo not given)	-12%
CC(C)(C)c1ccc(/C=C/C(=O)NCCCn2ccnc2)cc1	-12%
O=C(CCCN1C(=O)/C(=C/c2cccs2)SC1=S)Nc1ccc(O)cc1	-6%
O=C(Nc1sc2c(c1C(=O)O)CCCCC2)c1ccccc1F	u
C[C@H](CO)N1C[C@H](C)[C@@H](CN(C)C(=O)Nc2ccc(C(F)(F)F)cc2)Oc2ccc(NS(=O)(=O)c3ccc(F)cc3)cc2C1=O	-3%
O=C(CSc1ccc(Br)cc1)NC1CCS(=O)(=O)C1 (stereo not given)	u
CCOc1cccc(NC(=O)CSc2ncc(-c3ccc(Cl)cc3)[nH]2)c1	-20%
Cc1ccc(C2C(=O)N(C3CCC(C)CC3)CC(=O)N2C2CCCC2)cc1 (stereo not given)	-3%&-12%
O=C(NCc1ccco1)c1cc(-c2ccccc2)on1	-13%
CCOC(=O)C1CCCN(CC(=O)Nc2c(C(=O)OC)[nH]c3ccc(Cl)cc23)C1 (stereo not given)	13%
CCOc1ccc(CNC(=O)c2ccco2)cc1	-16%
CNCC[C@@H](Oc1ccc(C(F)(F)F)cc1)c1ccccc1	-27%
COc1ccc(OC)c(/C=C/C(=O)OCC(=O)N2CCN(S(=O)(=O)c3ccc(C)cc3C)CC2)c1	1%
COc1ccc(C(=O)CSc2nnc(C3CC3)n2N)cc1	15%
O=C(OCC(=O)N1N=C(c2ccc(Cl)cc2)CC1c1ccco1)c1ccccc1O (stereo not given)	-7%
CCN1C(=O)[C@H]2[C@H]3CN=C(SC)N3[C@@](Cc3ccccc3)(C(=O)OC)[C@H]2C1=O	1%
CCNC(=O)NC(=O)C(C)OC(=O)c1oc2ccc(OC)cc2c1C (stereo not given)	-14%
O=S(=O)(c1ccc(N2CCCC2)nc1)N1CCCC1	-7%
CC(=O)N1[C@H](Cc2ccccc2)C=C[C@]1(C)C(=O)NCCc1c[nH]c2ccccc12	u
CC(C(=O)O)n1cc(Cl)cn1 (stereo not given)	13%
CCOc1ccc(CCNC(=O)C2=C(C)C(=O)OC23CCC(C)CC3)cc1OCC (stereo not given)	-2%&-20%
O=C(Nc1nncs1)C1CCCC1	-3%
CCOCCCNC(=O)Cn1nc(-c2ccccc2)ccc1=O	-17%
C[C@H](NC(=O)N1CCn2c1nc1ccccc12)C(=O)NCc1ccco1	-7%

(continued)
SMILES	VDR inh
COc1ccc(COC(=O)CN2C(=O)NC3(CCCC3)C2=O)cc1F	11%
CCSc1ncc(Cl)c(C(=O)Nc2ccc(S(=O)(=O)N3CCCCC3)cc2)n1	8%
CCCCN(CC)C(=O)Cn1c(=O)n(-c2ccc(OCC)cc2)c(=O)c2c3c(sc21)CCC3	-9%
COc1ccc(CCNC(=O)CCS(=O)(=O)c2ccc3nc(C)sc3c2)cc1OC	-1%
CS(=O)(=O)N(CC(=O)N1CCCCCC1)c1cccc(Cl)c1Cl	-3%
COc1ccc(CNC(=O)c2cc(-c3ccncc3)nc3c(C)cc(C)cc23)cc1OC	-7%
O=C(COC(=O)COc1cccc(C(F)(F)F)c1)NC(=O)NC1CCCCC1	-11%

This is a subset (hit frequency here may not be typical).
